Bioassay records from PubChem BioAssay.
MT stabilizer: microtubule stabilizers in HeLa cells, primary screen, imaging, high-content imaging | HeLa tubulin immunostaining HCS, 24 h; share of cells brighter than vehicle mean+2SD | % tubulin-high responders, % at 10 µM | actives 0.83% (n = 200,000);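 active = plate Z-score above 3 for both tubulin-high and condensed-nucleus cell shares, with cell loss under 80%, at 10 µM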;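 also: anti alpha tubulin signal scored within the nucleus-defined area of each cell; some results filed as inactive read as strong as hits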
Ins promoter up: insulin promoter activators in MIN6 cells, imaging, high-content screening, mouse beta cells. AID 1625, 2009. actives 0.3% (n = 190,000). z-score at 5 µM. MIN6 insulin promoter-GFP reporter; active compounds read high;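 active = z-score above 3 at 5 µM with at least 500 cells counted in the well; inconclusive = wells under 500 cells, flagged as cytotoxic or low count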
Yfh1-off respiration: enhancers of respiration in Yfh1-depleted yeast, dose response, Friedreich's ataxia, plus single-dose screen (AID 1465). S. cerevisiae Yfh1-off respiration, WST-1 reduction, 72 h; higher fold induction means a stronger effect. one-dose fold induction at 50 µM; EC50 in µM for titrated hits. actives 0.074% (n = 220,000);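 active = fold induction of absorbance versus untreated yeast above a set limit, then at least 30% activation at any dose in follow-up; inconclusive = repeats straddling the limit, or above it without dose testing; inactive = fold induction below the set limit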;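 also: activators that raise dye reduction in frataxin-depleted yeast; strong numbers were not always called active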
P. falciparum M17LAP: P. falciparum M17LAP inhibitors, primary screen, biochemical, fluorogenic H-Leu-NHMec substrate, 1536-well (AID 1619). actives 0.38% (n = 220,000). Leucine aminopeptidase (Plasmodium falciparum (isolate 3D7)). recombinant M17LAP, H-Leu-NHMec fluorogenic kinetic assay; higher % means a stronger effect. inhibition, % at 30 µM, or IC50 in µM where a hit was titrated;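 active = compound inhibiting the enzyme by more than half at any dose during confirmatory dose-response retesting; inconclusive = strong single-dose inhibitors picked by rank but not retested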;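 also: plate controls were full reaction with DMSO carrier for no effect and no enzyme background for full effect; strong numbers were not always called active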
Dynein transport: inhibitors of GR-EGFP nuclear translocation, primary screen, dynein cargo transport inhibitor project, imaging, high-content, 3617.4 mouse cells. test concentration mostly 20 µM; stimulated with dexamethasone, 1 µM; active compounds read low. z-score, hits read low. actives 0.47% (n = 220,000);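 active = plate z-score of nuclear minus cytoplasmic receptor signal below a set negative limit, without overly bright fluorescence or cell loss, cut at about -3.5 in these data, passing the limit was not always enough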;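 also: z-score of nuclear minus cytoplasmic ring GR-EGFP intensity difference per well; some compounds called inactive have numbers as strong as hits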
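medium = tetracycline-free induction medium containing charcoal-stripped FBS | also added = 1.0 µM final dexamethasone stimulus | schedule = 48 h induction, 1 h compound, 30 min dex at 37 °C | technique = fixed, Hoechst-stained cells imaged at 10x for EGFP | measure = GR-EGFP nuclear translocation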
Dynein transport cytoplasmic EGFP: also measured in Dynein transport; calls as there; z-score; measured here: cytoplasmic GR-EGFP intensity; active compounds read high
Dynein transport nuclear GR-EGFP: recorded beside Dynein transport, whose call it bears; z-score; measured here: nuclear GR-EGFP intensity;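 lower value marks the stronger effect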
Dynein transport cell count: second read-out of Dynein transport, no call of its own (marks repeat the call); z-score; measured here: cell count per field
Ins promoter up cell count: second read-out of Ins promoter up, no call of its own (marks repeat the call); cell count; measured here: cytotoxicity, nuclei count;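 total cells summed across four imaged fields per well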
MT stabilizer Hoechst-high %: also measured in MT stabilizer; calls as there; % Hoechst-high responders; measured here: nuclear condensation Hoechst responders;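 share of cells brighter than vehicle mean plus two SD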
MT stabilizer cytotoxicity %: further read-out of MT stabilizer, marked with its call; toxicity, %; measured here: cytotoxicity by cell density;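 0% = mean cell density of plate MIN control wells and 100% = no cells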
Starred values were filed as active, the others as inactive; i = inactive; ? = inconclusive; · = no result given. Not all compounds are listed; the hit share may differ from the screen's.

cpd	canonical_smiles	MT stabilizer	MT stabilizer Hoechst-high %	MT stabilizer cytotoxicity %	Ins promoter up	Ins promoter up cell count	Yfh1-off respiration
1	CS(=O)(=O)N1CCCC(C(=O)N2CCC3(CC2)OCCO3)C1 (configuration not stated)	2.0	2.6	4.5	-0.57	1751	i
2	O=C1OCCC1Sc1nnc(-c2ccc(Cl)cc2Cl)o1 (configuration not stated)	·	·	·	0.48	1434	i
3	Cc1nc(C2CCC3C4CCC5=CC(=O)CC[C@]5(C)C4CC[C@]23C)cs1 (some centres not stated)	·	·	·	0.23	972	i
4	Clc1ccc(Nc2ncnc3ccc(Br)cc23)cc1	1.2	1.3	7.9	0.01	1196	i
5	CCN(N=Nc1nonc1OC)c1nonc1OC	2.0	1.4	0.3	·	·	i
6	O=[N+]([O-])c1ccc(C2[C@H]3C(c4ccccc4)=NC4(CCCCC4)N23)cc1 (some centres not stated)	4.5	2.8	6.6	-0.06	1532	i
7	Nc1nc(CCl)nc(Nc2ccc3ccccc3c2)n1	·	·	·	-1.5	675	i
8	CN1C2CCC1/C(=C/c1ccccn1)C(=O)/C2=C\c1ccccn1	61	8.2	88	?	·	i
9	COc1ccc(NC(=O)c2cccc(S(=O)(=O)Nc3ccc(Br)cc3)c2)cn1	4.9	1.4	8.0	-0.55	1230	i
10	COc1ccc(NC(=O)c2cn(CCC#N)nc2-c2ccc([N+](=O)[O-])cc2)cc1	3.3	2.6	5.0	0.31	1193	i
11	O=C(O)C(Cc1ccccc1)N1C(=O)/C(=C/c2cccc3ccccc23)SC1=S (configuration not stated)	2.3	1.9	7.1	-0.33	1824	i
12	CCOC(C(=O)OCCCN(CC)CC)(c1ccccc1)c1ccccc1	2.5	1.5	5.1	-0.04	1017	i

cpd	P. falciparum M17LAP	Dynein transport	Dynein transport cytoplasmic EGFP	Dynein transport nuclear GR-EGFP	Dynein transport cell count
1	-6%	0.28	-0.06	0.19	0.55
2	16%	1.7	-0.23	0.64	-0.73
3	10%	-1.1	-0.26	-0.2	-0.24
4	0%	-0.36	-0.17	-0.27	0.36
5	2%	0.64	-0.26	0.34	-0.16
6	-4%	-0.64	-0.079	-0.01	0.77
7	8%	-4.3*	0.52*	-1.6*	-0.61*
8	33%	-3.6*	1.6*	-2.2*	0.51*
9	0%	-0.2	-0.21	-0.098	-0.099
10	0%	-0.74	-0.33	-0.87	0.15
11	42%	0.45	-0.11	-0.095	0.51
12	-8%	0.019	0.1	0.4	-0.22

Continuation:
cpd	canonical_smiles	MT stabilizer	MT stabilizer Hoechst-high %	MT stabilizer cytotoxicity %	Ins promoter up	Ins promoter up cell count	Yfh1-off respiration
13	O=C1NC(=O)N(c2ccccc2)C(=O)/C1=C/c1ccc([N+](=O)[O-])s1	1.7	2.4	7.8	0.02	1163	i
14	C=C(C=O)CC1CC(O)[C@]2(C)OC3CC4OC5C[C@]6(C)O[C@]7(C)CCC8OC9C[C@]%10(C)OC%11C(C)=CC(=O)OC%11CC%10OC9C[C@@H](C)C8OC7CC6O[C@]5(C)CC5OC5C4OC3CC2O1 (some centres not stated)	31	4.7	40	?	·	i
15	O=C(c1cc(COc2c(F)cccc2F)on1)N1CCC(c2ccncc2)CC1	5.1	2.0	4.5	0.58	967	i
16	O=C(CCl)Nc1cc(S(=O)(=O)N2CCCCCC2)ccc1Cl	3.8	4.7	0.4	0.39	1085	i
17	CCOc1ccc(C(=O)/C=C/c2cc(OC)c(OC)c(OC)c2)cc1	7.8	12	15	0.64	959	i
18	O=C(O)CCn1cc(/C=C/C(=O)c2ccc(Cl)cc2)c(-c2cccc(Br)c2)n1	·	·	·	-0.1	759	i
19	CCOC(=O)c1c(NC(=O)c2c(N)n(CCCOC)c3nc4ccccc4nc23)sc2c1CCCC2	2.8	1.3	1.1	-0.62	938	i
20	COC(=O)c1scc(S(=O)(=O)C(C)C)c1N/N=C(\C#N)C(=O)c1ccc(Cl)cc1	·	·	·	0.53	1474	i
21	O=C(Nc1ccc(Cl)cc1C(=O)c1ccccc1Cl)c1ccco1	1.5	1.2	9.6	-0.02	1629	i
22	CCOc1ccc(-c2c(C)n(-c3ccc(OCC)cc3)c3[n+]2CCCCC3)cc1	·	·	·	?	·	i
23	Cc1cccc(-n2c(O)c(C=NC34CN5CN(CN(C5)C3)C4)c(=O)[nH]c2=O)c1	2.5	2.6	4.4	1.1	1118	i
24	O=C(c1cc(COc2ccc3ncccc3c2)on1)N1CCCCCC1	5.0	2.7	7.3	-5.5	892	i
25	C=C(C(=O)c1ccccc1)C(CC(=O)c1ccccc1)c1ccccc1 (configuration not stated)	7.3	3.2	4.8	0.05	1019	i

cpd	P. falciparum M17LAP	Dynein transport	Dynein transport cytoplasmic EGFP	Dynein transport nuclear GR-EGFP	Dynein transport cell count
13	37%	-5.8*	2.4*	-2.6*	0.27*
14	2%	1.3	9.5	2.6	-4.4
15	2%	0.39	-0.05	0.018	-1.7
16	-2%	-2.7	0.12	-1.6	-0.53
17	-2%	-4.2*	1*	-1*	0.22*
18	6%	1.4	-0.25	0.78	-2.3
19	2%	0.76	-0.14	0.81	-0.59
20	9%	-0.35	-0.24	-0.17	0.23
21	-1%	-0.5	-0.2	-0.65	0.64
22	1%	0.32	-0.27	0.12	0.19
23	21%	-0.44	-0.35	-0.074	0.089
24	6%	0.026	-0.26	-0.27	0.01
25	-6%	-2.7	0.6	-1.5	-0.49

Sorted by SMILES length (low to high): some entries from above
cpd	canonical_smiles	MT stabilizer	MT stabilizer Hoechst-high %	MT stabilizer cytotoxicity %	Ins promoter up	Ins promoter up cell count	Yfh1-off respiration
4	Clc1ccc(Nc2ncnc3ccc(Br)cc23)cc1	1.2	1.3	7.9	0.01	1196	i
2	O=C1OCCC1Sc1nnc(-c2ccc(Cl)cc2Cl)o1 (configuration not stated)	·	·	·	0.48	1434	i
16	O=C(CCl)Nc1cc(S(=O)(=O)N2CCCCCC2)ccc1Cl	3.8	4.7	0.4	0.39	1085	i
21	O=C(Nc1ccc(Cl)cc1C(=O)c1ccccc1Cl)c1ccco1	1.5	1.2	9.6	-0.02	1629	i
1	CS(=O)(=O)N1CCCC(C(=O)N2CCC3(CC2)OCCO3)C1 (configuration not stated)	2.0	2.6	4.5	-0.57	1751	i
25	C=C(C(=O)c1ccccc1)C(CC(=O)c1ccccc1)c1ccccc1 (configuration not stated)	7.3	3.2	4.8	0.05	1019	i
22	CCOc1ccc(-c2c(C)n(-c3ccc(OCC)cc3)c3[n+]2CCCCC3)cc1	·	·	·	?	·	i
11	O=C(O)C(Cc1ccccc1)N1C(=O)/C(=C/c2cccc3ccccc23)SC1=S (configuration not stated)	2.3	1.9	7.1	-0.33	1824	i
6	O=[N+]([O-])c1ccc(C2[C@H]3C(c4ccccc4)=NC4(CCCCC4)N23)cc1 (some centres not stated)	4.5	2.8	6.6	-0.06	1532	i
23	Cc1cccc(-n2c(O)c(C=NC34CN5CN(CN(C5)C3)C4)c(=O)[nH]c2=O)c1	2.5	2.6	4.4	1.1	1118	i
14	C=C(C=O)CC1CC(O)[C@]2(C)OC3CC4OC5C[C@]6(C)O[C@]7(C)CCC8OC9C[C@]%10(C)OC%11C(C)=CC(=O)OC%11CC%10OC9C[C@@H](C)C8OC7CC6O[C@]5(C)CC5OC5C4OC3CC2O1 (some centres not stated)	31	4.7	40	?	·	i

cpd	P. falciparum M17LAP	Dynein transport	Dynein transport cytoplasmic EGFP	Dynein transport nuclear GR-EGFP	Dynein transport cell count
4	0%	-0.36	-0.17	-0.27	0.36
2	16%	1.7	-0.23	0.64	-0.73
16	-2%	-2.7	0.12	-1.6	-0.53
21	-1%	-0.5	-0.2	-0.65	0.64
1	-6%	0.28	-0.06	0.19	0.55
25	-6%	-2.7	0.6	-1.5	-0.49
22	1%	0.32	-0.27	0.12	0.19
11	42%	0.45	-0.11	-0.095	0.51
6	-4%	-0.64	-0.079	-0.01	0.77
23	21%	-0.44	-0.35	-0.074	0.089
14	2%	1.3	9.5	2.6	-4.4
